High-throughput results from PubChem.
T cruzi repl: blocks replication of Trypanosoma cruzi; 300,000 compounds, 1.4% hits; AID 1885; inhibition, % (concentration not given with the values); T. cruzi beta-gal in NIH3T3, luminescence, 90 h;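 active = mean inhibition across valid replicates above about 55%, limit read from the data; inconclusive = mean below that limit but half or more replicates reach it; inactive = mean below it, under half of replicates reach it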;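 also: signal also drops with host cell toxicity which is not excluded here; 0% = plate median of DMSO wells and 100% = zero luminescence signal; higher percent means less beta-gal luminescence so fewer parasites; stock transfer was 50 nL into about 50 µL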
Beta apoptosis: blocks beta cell apoptosis; INS-1E cytokine-induced death, ATP luminescence, 48 h; percent of positive-control rescue, neutral wells zero; protection from apoptosis, % (no concentration beside the values); 300,000 compounds, 0.8% hits;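 active = all replicates at 75% or more, or half of them and the mean; inconclusive = half reach 75% but not the mean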;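 also: 0% = cytokine-treated negative control wells and 100% = positive control rescue; higher means more ATP so stronger rescue from cytokine killing; wells of about 40 µL received 100 nL stock; the first replicate is given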
RanGTP-Impb inh: inhibitors of RanGTP-importin-beta interaction, primary screen, biochemical, FRET, CFP-Ran, YFP-importin-beta, homogeneous; cell-free CFP-Ran/YFP-importin-beta FRET ratio; inhibition, % (no concentration beside the values); 300,000 compounds, 1.1% hits; AID 2216;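 active = most replicates above 15%; inconclusive = exactly half above 15%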;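 also: 0% = DMSO wells and 100% = Ran loaded with GDP instead of GTP; wells of about 40 µL received 100 nL stock; the first replicate is given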
ALR inh: human ALR oxidase inhibition via reduced H2O2; P55789; purified ALR, DTT oxidation, H2O2 HRP-luminol luminescence; inhibition, % (no concentration beside the values); 290,000 compounds, 3.8% hits; AID 485317;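 active = mean and each replicate at 75% or more; inconclusive = only one of the two met; inactive = neither met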;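 also: stock transfer was 7.5 nL into about 7.5 µL; 0% = neutral wells and 100% = wells with inactivated enzyme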
Target sequence (P55789 whole entry, looked up): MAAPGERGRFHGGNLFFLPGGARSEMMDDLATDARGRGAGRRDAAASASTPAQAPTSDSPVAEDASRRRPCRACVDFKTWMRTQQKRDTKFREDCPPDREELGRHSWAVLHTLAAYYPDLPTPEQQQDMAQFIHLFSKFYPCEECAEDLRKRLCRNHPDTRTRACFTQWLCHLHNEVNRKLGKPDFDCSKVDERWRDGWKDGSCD
MLL AF4-AF9 inh: inhibitors of human MLL-AF4/AF9 interaction; P42568; AlphaScreen, biotin-AF4 peptide binding to FLAG-AF9; inhibition, % at 10 µM; 350,000 compounds, 0.47% hits; AID 651704;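 active = every replicate reaching a set inhibition limit, whatever the replicate mean, cut at about 25% in these data; inconclusive = mean inhibition reaches that limit but some replicates miss it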;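 also: 0% = plate neutral control median and 100% = total signal loss; the record names both 10 and 1 µM as test concentration; the first replicate is given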
Target sequence (P42568 whole entry, looked up): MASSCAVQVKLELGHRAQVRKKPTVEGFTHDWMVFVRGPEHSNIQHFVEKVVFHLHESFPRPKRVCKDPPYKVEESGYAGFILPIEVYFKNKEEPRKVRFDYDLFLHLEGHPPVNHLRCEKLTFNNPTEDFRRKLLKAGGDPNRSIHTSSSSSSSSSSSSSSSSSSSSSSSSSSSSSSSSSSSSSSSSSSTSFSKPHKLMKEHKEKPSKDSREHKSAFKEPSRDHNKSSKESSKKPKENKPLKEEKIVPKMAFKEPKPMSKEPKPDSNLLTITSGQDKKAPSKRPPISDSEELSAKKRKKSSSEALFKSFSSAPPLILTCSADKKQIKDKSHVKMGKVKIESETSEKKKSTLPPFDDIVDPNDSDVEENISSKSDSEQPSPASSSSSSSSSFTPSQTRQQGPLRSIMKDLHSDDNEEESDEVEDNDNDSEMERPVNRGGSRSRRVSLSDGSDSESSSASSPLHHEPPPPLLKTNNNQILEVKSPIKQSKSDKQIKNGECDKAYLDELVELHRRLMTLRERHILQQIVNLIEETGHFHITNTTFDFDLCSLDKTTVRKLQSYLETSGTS
Calb FLC: C. albicans growth modulation with fluconazole | AID 1979 | growth inhibition, % (no concentration beside the values) | 300,000 compounds, 0.57% hits | C. albicans CaCi-2 (fluconazole-resistant clinical isolate) + fluconazole, Alamar Blue growth, 48 h;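 active = most replicates above 75%; inconclusive = exactly half above 75%; inactive = most below 75%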;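 also: all wells also contain fluconazole at 8 µg/ml as a sub-toxic cotreatment; 0% = median of DMSO wells and 100% = median of geldanamycin control wells; wells of about 8 µL received 7.5 nL stock; the first replicate is given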
rRNA inh HTS: selective bacterial rRNA inhibition in E. coli. E. coli WT GFP vs humanized-ribosome RFP mutants, fluorescence, 24 h; stronger effect = lower value; DMSO median 0, no signal -100. GFP signal change (wild-type ribosome), % (concentration not given with the values). 350,000 compounds, 1.6% hits. AID 720706;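 active = significant combined selectivity score with lowered wild-type GFP, culture density cut under 30%, mutant RFP and density less affected; inactive = any of these conditions unmet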; also: one replicate is shown; some compounds called inactive have numbers as strong as hits
FGF22 binding: FGF22 (human) thermal shift binding; 340,000 compounds, 1.5% hits; Q9HCT0; calls only at 9.99 µM; recombinant FGF22 thermal shift, SYPRO orange fluorescence; percent of sucrose octasulfate shift, DMSO zero; AID 651658;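 active = melting point raised past a set limit in the mean and every replicate; inconclusive = no clear call; three in four hits are not shown here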
Target sequence (Q9HCT0 whole entry, looked up): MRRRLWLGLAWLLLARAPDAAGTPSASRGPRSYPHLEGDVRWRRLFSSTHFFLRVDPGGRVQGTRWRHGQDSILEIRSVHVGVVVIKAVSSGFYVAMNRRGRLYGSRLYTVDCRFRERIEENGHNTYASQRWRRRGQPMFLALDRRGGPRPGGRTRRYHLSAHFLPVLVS
rRNA inh HTS OD600: recorded beside rRNA inh HTS, whose call it bears; OD600 change, %; measured here: OD600 growth;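 optical density of the mix in the first replicate; 0 = DMSO median and -100 = no signal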
rRNA inh HTS RFP: also measured in rRNA inh HTS; calls as there; RFP signal change, %; measured here: RFP humanized mutant strains;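 first replicate; 0 = DMSO median and -100 = no signal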
* marks the source's active call; other numbers are inactive results; i = inactive; u = inconclusive; x = no result given. This is a subset; the hit share may differ from the screen's.

molecule	rRNA inh HTS OD600	MLL AF4-AF9 inh	ALR inh	Calb FLC	RanGTP-Impb inh	rRNA inh HTS RFP	FGF22 binding	rRNA inh HTS	T cruzi repl	Beta apoptosis
O=C(Nc1ccc(Cl)c(C(F)(F)F)c1)C1CCCN(S(=O)(=O)c2cnc[nH]2)C1 (stereo not drawn)	x	x	-14.7	5.4	-1.6	x	x	x	-8.7	-0.7
CC(CCc1ccccc1)NS(=O)(=O)c1ccccc1Cl (stereo not drawn)	-46.0	-0.5	1.1	4.1	-1.3	-1.4	i	-37.7	0.3	3.0
CCc1nnc(NC(=O)c2cccc(C(=O)Nc3nnc(CC)s3)n2)s1	6.5	22.2	-13.5	-6.2	-2.2	0.2	i	8.5	31.9	76.2*
CCN(CC)S(=O)(=O)c1ccc(N/N=C/c2cc(OC)ccc2O)nc1	0.1	2.6	x	23.1	1.2	4.6	i	3.4	10.1	108.1*
Cc1cc2ccccn2c1C(=O)c1ccc(Cl)cc1	x	x	-1.7	-13.4	0.1	x	x	x	-1.2	1.4
Fc1ccc(-c2nnn3c2nc(NCc2ccccc2)c2ccccc23)cc1	1.8	-11.5	x	9.7	u	-2.7	i	2.6	-8.2	1.1
CC(=O)NC1C(Oc2ccc(C=O)cc2)OC(COC(C)=O)C(OC(C)=O)C1OC(C)=O (stereo not drawn)	9.4	0.9	12.0	-0.4	7.7	0.2	i	9.2	0.2	0.6
CCC(C)(C)n1nnnc1C(c1ccc2ncccc2c1)N1CCN(c2nc3ccccc3s2)CC1 (stereo not drawn)	x	x	-5.3	21.1	5.3	x	x	x	31.4	6.5
COc1ccc(S(=O)(=O)N(CC(=O)N2CCOCC2)Cc2ccccc2)cc1	x	x	x	10.9	-0.5	x	x	x	-20.1	1.3
Cc1nc2nc(NC(=O)c3ccco3)nn2c(C)c1Cl	7.2	0.4	-14.6	-0.1	-1.9	3.6	i	8.6	1.9	-0.6
COc1ccc(C2Nc3ccccc3C(=O)N2Cc2ccccc2)cc1CN1CCOCC1 (stereo not drawn)	-6.6	2.4	2.6	27.2	-2.5	2.4	i	1.0	5.0	-9.7
N#Cc1c(N2CCCC2)nc(N)c2c(N)nc(N3CCCC3)cc12	x	x	-161.4	43.0	-5.3	x	x	x	19.0	79.6*
Cc1cc(C)n(-c2ncnc3sc4c(c23)CCCC4)n1	-7.5	-1.1	-5.2	-3.5	-3.1	-0.3	i	1.8	-4.7	-4.7
Cc1c(C(=O)OCC(=O)N2CCCC2=O)oc2ccccc12	5.8	-0.2	-37.2	4.9	-0.2	-0.8	i	4.3	-3.6	-2.0
CC(=O)c1cccc(NC(=O)CCNS(=O)(=O)c2cccc3nonc23)c1	-27.2	0.5	-4.0	u	-3.2	30.5	i	-17.7	-11.2	1.5
CSc1ccc(/C=C(\NC(=O)c2ccc(C)cc2)C(=O)Nc2cccc(C)c2)cc1	x	x	3.3	37.4	u	x	x	x	-16.9	x
Cc1ccc(Cn2ccc(=O)c(OCc3ccccc3)c2C)cc1	x	x	x	1.3	u	x	x	x	2.9	1.1
Cc1cc(C)c(S(=O)(=O)c2ccccc2C(C)C)c(=O)[nH]1	4.2	-2.1	0.0	0.2	2.0	0.8	i	1.5	-9.6	0.5
COc1ccc(OC)c(Nc2nc(C)nc3c2oc2ccccc23)c1	12.2	-1.3	7.6	6.3	5.2	-0.4	i	-1.0	15.3	12.2
Cc1cccc(-c2nc(NCCCN3CCOCC3)c3ccccc3n2)c1	x	x	12.4	14.4	-4.9	x	x	x	16.9	2.4
O=C(C1CCC(Cn2c(=O)[nH]c3ccccc3c2=O)CC1)N1CCN(c2ccccc2)CC1 (stereo not drawn)	-3.4	-6.8	43.3	4.6	-1.8	4.0	i	-3.4	6.8	5.4
COc1ccc(-c2noc(C3CCCN(C(=O)c4ccccc4)C3)n2)cc1 (stereo not drawn)	-28.8	3.9	-4.1	-1.2	2.5	1.6	i	-26.5	4.1	3.4
O=C(Nc1ccc2c(c1)OCO2)c1cc(-c2cccc(O)c2)on1	-6.3	2.1	x	-7.1	0.2	3.4	i	-13.6	4.2	6.8
COc1ccc(/C=C/C(=O)c2ccc([N+](=O)[O-])o2)cc1OC	3.0	3.2	64.4	-0.4	-0.1	-2.9	i	-4.2	45.5	112.0*
COc1ccc2c(c1)O/C(=C\c1ccccc1C)C2=O	6.7	4.2	x	-5.9	-3.8	-0.3	i	4.2	-2.2	9.3
CCOC(=O)C1CCCN(C(=O)CN2CCN(Cc3ccc(Cl)cc3)C2=O)C1 (stereo not drawn)	x	x	-5.5	-4.5	-2.5	x	x	x	-9.4	-0.1
COCCn1cc(C(=O)NCc2cccs2)c2c3ccccc3n(C)c2c1=O	x	x	-6.7	-9.5	-2.8	x	x	x	13.9	3.9
Cc1cccc(NC(=O)CSc2nnc(Cn3cnc4ccccc43)o2)c1	x	x	-2.4	-7.3	9.3	x	x	x	-11.5	-7.2
Cc1nn(-c2ccccc2)nc1CNC(=O)C1CC1	-13.2	0.1	-1.6	-12.9	1.5	-0.1	i	9.9	-8.1	-6.6
COc1ccccc1NC(=O)CN1C(=O)NC2(CCCCCCC2)C1=O	6.8	-9.2	-2.3	-23.1	1.1	-1.3	i	9.6	-11.2	0.8
CCn1c(CNC(=O)c2cccs2)nnc1SCC(=O)Nc1ccc(Cl)cc1	x	x	97.4*	10.2	5.7	x	x	x	3.3	-7.8
CCOc1cccc(-c2c(C(=O)N/N=C(\C)c3ccncc3)nnn2-c2nonc2N)c1	-13.2	1.0	-1.0	-7.9	3.9	-0.6	i	-1.6	23.0	x
COc1cccc(N(CC(=O)Nc2cccc(F)c2)S(C)(=O)=O)c1	-5.7	x	-5.5	5.0	-3.3	-2.1	x	0.0	-3.2	6.7
Cc1cccc(NC(=O)COc2coc(CN3CCN(c4ccccc4)CC3)cc2=O)c1C	5.7	1.9	x	4.0	5.1	1.5	i	8.3	-6.8	x
O=C(Nc1ccncc1)C1(c2ccccc2)CCCC1	-11.5	-10.3	-2.7	-9.1	6.2	-7.8	i	-8.7	-19.4	-4.3
CCOC(=O)N1CCN(C(=O)C2CC(=O)N(c3ccc(OC)cc3)C2c2ccc(OC)cc2)CC1 (stereo not drawn)	x	x	-2.2	5.6	1.0	x	x	x	13.1	-0.4
CCCN1C(=O)c2cc(C(=O)Nc3ccccc3C)ccc2C1Nc1ccccc1C (stereo not drawn)	-12.7	-55.3	x	-7.1	u	14.6	i	-3.1	-0.1	7.5
CCOC(=O)c1cc(NC(=O)c2ccc(Cl)cc2)c(=O)n2c1oc1ccc(Cl)cc12	-5.3	-1.6	-4.0	29.2	0.4	-0.1	i	3.9	-18.0	3.5
Cc1cc(Nc2ccc(Br)cc2F)n2ncnc2n1	0.2	2.2	-25.2	42.7	-1.0	-3.2	i	-0.1	-3.7	-2.7
COc1cc(C)nc(N2CCCC(C(=O)Nc3cccc(Cl)c3C)C2)n1 (stereo not drawn)	x	x	-20.1	-2.0	0.7	x	x	x	-10.9	-5.6
O=C(COC(=O)Cn1cnc2ccccc21)NCCCc1ccccc1	21.4	0.2	-2.9	u	0.5	0.1	i	12.9	-9.7	-1.4
CCCCN(CC)CCNC(=O)c1ccc2c(Cl)c3c(nc2c1)CCC3	-1.0	0.0	0.3	-7.0	0.2	6.0	i	-10.9	2.2	-2.0
CN(C)CCCN(C(=O)c1ccc2c(c1)CCCC2)c1nc2ccc(F)cc2s1	x	x	-0.3	-8.9	5.3	x	x	x	40.1	11.2
CCOc1ccc(NC(=O)COC(=O)c2ccc3c(c2)C(=O)N(CCc2ccccc2)C3=O)cc1	-3.2	6.4	-15.9	7.7	1.3	-4.8	i	3.5	-11.6	0.2
O=c1c2ccccc2nc(-c2ccco2)n1/N=C/c1ccco1	x	x	-7.3	7.0	0.1	x	x	x	-4.0	1.9
COc1cc2c(cc1/C=C1/NC(=O)N(c3ccccc3)C1=O)OCO2	x	x	-7.4	-4.5	7.9	x	x	x	9.1	2.0
COc1ccc2oc(-c3ccccc3)c(C(=O)N3CCOCC3)c2c1	x	x	-4.8	24.6	-2.1	x	x	x	0.9	-2.2
O=C(NCCO)C1(c2ccc(Cl)cc2)CCCC1	x	x	-6.2	16.5	1.6	x	x	x	-6.8	-1.6
CCCCn1c(N)c(N(CCC(C)C)C(=O)C2CCN(C(=O)c3ccccc3C)CC2)c(=O)[nH]c1=O	13.6	-23.0	x	-1.1	1.7	0.2	i	2.1	3.1	-3.2
CSc1nc(C(=O)N2CCCC(Nc3ccc(C)c(C)c3)C2)cs1 (stereo not drawn)	-37.5	3.4	98.4*	-4.5	u	-3.0	i	-13.1	11.2	-3.3
c1cc(-c2noc(CCC3CCCC3)n2)ccn1	x	x	-1.9	-13.5	3.2	x	x	x	6.7	-0.6
CC(=O)c1ccc(S(=O)(=O)N(C)CCCC(=O)N(C)Cc2c(F)cccc2Cl)cc1	-5.5	0.7	-0.8	-2.0	-3.4	1.7	i	-6.2	-1.4	-2.1
CCN(CC)C(=O)C(Cc1ccccc1)N1C(=O)c2ccccc2C1=O (stereo not drawn)	x	x	-6.3	2.5	-0.8	x	x	x	-0.7	-2.0
CC(C)Cn1c(N)c(C(=O)COC(=O)C2=COCCO2)c(=O)n(C)c1=O	x	x	-7.3	-18.2	-0.1	x	x	x	1.8	-3.7
Cc1ccc(-n2nc3c(=O)n(C(C)C(=O)NCCc4cccs4)nc(C)c3c2C)cc1 (stereo not drawn)	x	x	x	15.2	-5.0	x	x	x	6.3	1.8
Cc1nn(C)c(C)c1S(=O)(=O)N(CC(=O)Nc1ccc2c(c1)OCO2)c1ccc(C(C)C)cc1	11.0	0.8	7.6	x	x	-1.7	i	9.3	x	x

(next part)
molecule	rRNA inh HTS OD600	MLL AF4-AF9 inh	ALR inh	Calb FLC	RanGTP-Impb inh	rRNA inh HTS RFP	FGF22 binding	rRNA inh HTS	T cruzi repl	Beta apoptosis
Fc1cccc(Nc2ncnc3[nH]ncc23)c1	5.2	-2.8	-17.0	29.1	0.7	-7.1	i	8.8	-10.0	0.3
CC(=O)NC(CC(=O)NCc1ccncc1)c1ccccc1 (stereo not drawn)	7.7	0.4	-9.2	-9.1	1.7	-0.6	i	4.2	-24.4	0.7
O=c1ccc(C(F)(F)F)cn1Cc1cc(=O)n2ccsc2n1	5.4	-3.3	x	1.2	2.5	-0.4	i	8.4	-8.3	-1.6
O=C(O)c1cccc(S(=O)(=O)N(Cc2ccccc2)c2ccccc2)c1	-47.9	-1.8	1.0	1.6	0.7	-12.3	x	-39.1	-10.2	0.8
O=C(N/N=C/c1ccccn1)c1cc(C2CC2)[nH]n1	7.4	0.4	3.2	-10.1	-1.3	2.0	i	17.1	-6.7	-2.5
